Source: PubChem (National Center for Advancing Translational Sciences (NCATS))
ClpP mod: qHTS Assay for Activators of ClpP | purified B. subtilis ClpP, FRET peptide cleavage, 20 min | Potency, µM (highest dose often 57.5 µM), inactives show at the top dose activity change, negative = active | 1.9% of 340,000 active; active = well fitted falling curve with a large enough effect; inconclusive = small, poorly fitted or top-dose-only effect; inactive = no such curve, though single readings can be large or run the other way; note: potency is the fitted concentration of half-maximal effect; the source files actives as falling curves though it sought activators and does not explain the sign; nearly all actives have a fitted effect of over 65% in size; many hits overshoot -100%
Target sequence (P80244 whole entry, looked up): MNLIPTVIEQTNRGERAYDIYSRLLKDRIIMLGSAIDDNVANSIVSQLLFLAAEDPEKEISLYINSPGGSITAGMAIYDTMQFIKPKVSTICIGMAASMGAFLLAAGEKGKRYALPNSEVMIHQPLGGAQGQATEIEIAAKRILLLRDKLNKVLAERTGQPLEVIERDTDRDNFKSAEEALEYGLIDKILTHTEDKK
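FRET quenching reversal measured ClpP activation: 10 microg/mL B. subtilis ClpP at pH 8 with the FRET-FV decapeptide, read at 430 nm after 320 nm excitation. The 20-min minus 0-min signal was scaled between DMSO/no-enzyme wells and ADEP (5.8 microM final).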
Sfp PPTase inh: qHTS Assay for Inhibitors of Bacillus subtilis Sfp phosphopantetheinyl transferase (PPTase); 4'-phosphopantetheinyl transferase ffp (Bacillus subtilis), Q9F4F7; Biochemical Sfp PPTase activity, qHTS; Potency, µM, for the others: max response, negative = inhibition, actives largely listed as inhibitors; 3.5% of 310,000 active; active = well fitted inhibition curve with a large enough effect; inconclusive = small, poorly fitted or top-dose-only effect, or another doubt; inactive = no such curve, though single readings can be large or run the other way;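 note: the enzyme is Sfp with the accession as filed and its product quenches rhodamine fluorescence; potency is the fitted concentration of half-maximal effect; 0% = enzyme reaction without inhibitor and -100% = no enzyme wells; top concentration of the series not given in the record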
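Reaction rates are the 30-min fluorescence difference (ex 525, em 598 nm) in wells containing 15 nM Sfp, 5 uM rhodamine-CoA and 12.5 uM BHQ-2-YbbR at pH 7.6 with 10 mM MgCl2.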
Menin-MLL FL inh: qHTS Assay for Inhibitors Targeting the Menin-MLL Interaction in MLL Related Leukemias: Competition With Fluorescein Labeled MLL-derived Peptide; Fluorescence polarization, fluorescein-MLL peptide displacement from menin; FP activity change, % at 61.4 µM; 290,000 tested, under 10 active; AID 1766, 2009; inconclusive = falling polarisation curve, or a change in total fluorescence; inactive = total fluorescence flat and polarisation flat or rising; no compound was filed as active; the % refers to the polarisation; negative = inhibition;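 note: % of control where 0% means no effect; inhibitors lower the polarisation; unlabelled MLL peptide was the positive control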
PINK1 modulator: A Quantitative High throughput Screen to Identify Chemical Modulators of PINK1 Expression. Potency, µM (highest dose often 76.6 µM), for the others: at the highest dose activation (PINK1 increase), actives largely listed as activators. PINK1 immunofluorescence, high-content cytometry, 24 h. 0.2% of 410,000 active. AID 624263, 2012; active = well fitted activation curve with a large enough effect; inconclusive = small, poorly fitted or top-dose-only effect; inactive = flat fitted curve, though single readings scatter; cell line not stated here;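 note: potency is the fitted concentration of half-maximal effect; % of control where 0% means no effect; nearly all actives have a fitted effect of over 65% in size; a mitochondrial uncoupler was the plate control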
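Fluorescence from anti-PINK1 antibody, together with nuclear and cell stains, was scanned on a laser-scanning cytometer. Before staining, stable-line cells were incubated 24 hours with compounds at 5 concentrations; primary antibody 12 h at 10 degrees C.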
TRPML1 ag: qHTS for Agonists of the Human Mucolipin Transient Receptor Potential 1 (TRPML1); Mucolipin-1 (Homo sapiens), Q9GZU1; TRPML1-expressing cells, Ca2+ dye fluorescence, FDSS; host cell line not named in the record; reference of the full effect not given here; activation, % (concentration not given with the values); 0.12% of 410,000 active; AID 624414, 2012; in the data active = activation above about 50%; inconclusive = about 30% to 50%; inactive = below about 30%; note: 0% is about no effect; the text of the record puts the active cut at 80%
Target sequence (Q9GZU1 whole entry, looked up): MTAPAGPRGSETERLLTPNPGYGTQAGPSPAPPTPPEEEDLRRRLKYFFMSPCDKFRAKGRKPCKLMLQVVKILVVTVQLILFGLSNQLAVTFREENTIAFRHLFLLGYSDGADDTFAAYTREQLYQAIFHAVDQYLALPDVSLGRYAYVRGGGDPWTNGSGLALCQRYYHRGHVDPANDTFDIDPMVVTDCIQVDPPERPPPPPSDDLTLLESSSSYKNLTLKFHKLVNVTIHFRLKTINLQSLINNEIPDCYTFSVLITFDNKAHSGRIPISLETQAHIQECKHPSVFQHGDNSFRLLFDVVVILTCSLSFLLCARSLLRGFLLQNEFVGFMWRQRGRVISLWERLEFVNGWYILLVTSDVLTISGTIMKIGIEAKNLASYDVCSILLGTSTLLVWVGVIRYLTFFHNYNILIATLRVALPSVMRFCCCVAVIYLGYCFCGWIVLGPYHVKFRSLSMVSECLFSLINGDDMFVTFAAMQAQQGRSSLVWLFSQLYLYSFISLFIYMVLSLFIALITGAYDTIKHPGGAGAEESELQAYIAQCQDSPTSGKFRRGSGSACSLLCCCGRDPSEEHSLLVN
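Kinetic FDSS Ca2+ read in Tet-induced TRPML1-DL cells (ABD Ca8 dye plus quencher, 45-90 min RT loading): baseline, then compound, then 110 s agonist window; EC80 agonist 54-4 at 4uM final added afterwards for a 110 s antagonist window.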
TRPML1 blocker: qHTS for Inhibitors of the Human Mucolipin Transient Receptor Potential 1 (TRPML1); TRPML1-inducible cells, Ca2+ dye fluorescence, FDSS; stronger effect = lower value; inhibition of EC80 agonist-evoked calcium signal; activity change, negative = inhibition, % (no concentration beside the values); 0.02% of 390,000 active; in the data active means activity change below about -50%; inconclusive means about -30% to -50%; inactive means above about -30%;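 note: stimulus is agonist 54-4 at its EC80 concentration; % is set by controls: 0 for no effect and ±100 for the full control effect; compound concentration not given in the record; the text of the record puts the active cut at -80%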
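Tet-induced TRPML1-DL cells loaded with Ca8 no-wash calcium dye were read kinetically on FDSS. Compound addition was followed by EC80 agonist 54-4 (4 uM final); inhibition was read over 110 s.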
TRPV1 PAM: HTS Assay for Compounds that Act as Potentiators of the Vanilloid Receptor 1. Transient receptor potential cation channel subfamily V member 1 (Homo sapiens), Q8NER1. TRPV1-expressing cells, Fluo-8 calcium influx, capsaicin EC20 potentiation; host cell line not named in the record; control for the full effect not named in the record. potentiation, % at 8.33 µM. 0.02% of 320,000 active; active means potentiation above 80%; inconclusive means 30% to 80%; inactive means below 30%; note: 0% is about no effect
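Fluo-8 calcium influx in TRPV1-expressing cells, kinetic read (ex 480/em 520 nm). Compound added and read 3 min for agonist activity, followed by capsaicin at EC20 final and 2 min further read for enhancement.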
Numbers without * were called inactive; ? = inconclusive; · = not tested or not shown; & = joins results of further samples; ! = not confirmed by another sample; [ ] = dose if it differs, or a comment.

mol	Sfp PPTase inh	TRPML1 ag	Menin-MLL FL inh	TRPV1 PAM	PINK1 modulator	ClpP mod	TRPML1 blocker
OCC(O)C(O)CC1SCCS1 (stereo not drawn)	·	-0.5	·	·	4.3%	1.4%	27
COc1ccc(-c2[nH]c(-c3ccccc3)nc2SCC(=O)NC2CCCC2)cc1	-1%	0.4&-0.1	5.0	-11	-0.5%&0.1%	22µM*!	-2&17
COc1ccccc1CN1C(=O)CN(C2CCCCCC2)C(=O)C1c1ccc(F)cc1 (stereo not drawn)	-6%	-0.5&1.4	2.3	-12	0.9%	1.2%&-0.9%	18&6
C=CCNC(=S)NNC(=O)c1ccncc1	-1%	0.9	2.6	-1	2.3%	0.0%	-11
Cc1c(C(=O)N2CCC(C(N)=O)CC2)oc2ccc(Br)cc12	·	0.1	·	-20	1.1%	·	2
CCc1ccccc1N(CC(=O)NC(C)(C)CC)C(=O)CCC(=O)Nc1nccs1	5%	0.3	0.9	-7	6.7%	2.7%	-7
Cc1cc(C)n2nc(C(=O)Nc3ccc4c(c3)OCCO4)nc2n1	·	0.0	·	5	0.6%	-3.2%	2
CC1CCCCN1C(=O)c1ccccc1OC1CCN(S(C)(=O)=O)CC1 (stereo not drawn)	5%	-0.5	-3.9	0	0.7%	1.5%	4
Cc1cccc(C)c1NC(=O)CN(C)C(=O)c1ccc(-c2cccc(C(F)(F)F)c2)o1	·	7.7	·	-3	3.0%	·	12
COC(=O)c1scc(-c2ccc(C)cc2)c1S(=O)(=O)N1CCN(c2cccc(Cl)c2)CC1	·	-0.5	·	·	0.9%	-1.4%	-10
CC1COC(C)(CC(=O)NN2C(=O)c3ccccc3C2=O)O1 (stereo not drawn)	12%	0.1	-2.0	4	0.0%	·	-16
CCOc1ccccc1NC(=O)Cn1c(=O)n(-c2ccccc2)c(=O)c2c1c1cc(C)ccc1n2C	·	1.4	·	·	1.3%	4.1%	46
COc1cccc(CNC(=O)CCc2nc(-c3ccc(C)cc3)no2)c1	·	2.4	·	·	0.3%	-0.5%	15
O=C(Nn1cnc2ccccc2c1=O)c1ccc([N+](=O)[O-])cc1	19%	0.1	0.5	-1	0.8%	·	6
Cc1ccc(NC(=O)Cc2ccc3c(c2)CCCC3)cc1C	-6%	-0.4	4.9	-11	3.3%[38.3 µM]	-1.7%	-5
COc1ccc(NC(=O)CN(C)C(=O)c2c(-c3c(F)cccc3Cl)noc2C)cc1	·	-1.0	·	-13	0.2%	-3.3%	26
C/C(=N\NC(=O)c1nnn(-c2nonc2N)c1-c1ccccc1)c1ccco1	5%	0.8	·	0	0.2%	-0.4%	-7
Cc1cc(C)n2cc(CSc3nc4ccccc4s3)nc2n1	12%	1.3	3.1	4	9.7%	-23%	26
Cc1cc(C(=O)N/N=C/c2cccc([N+](=O)[O-])c2)c(C)o1	12%	-0.2	0.7	·	-1.5%	0.2%	1
O=C(Cn1c(=O)sc2ccccc21)OC(CCl)CCl	-12%	-0.7	5.6	6	-0.2%	0.7%	-4
C[C@]12CC[C@H](O)CC1=C[C@H](O)C1C2CC[C@@]2(C)C1CC[C@@]2(O)C#Cc1ccc(CN)cc1 (stereo partly drawn)	·	0.2	·	·	0.2%	·	-6
COc1ccc(-c2cn3cccc(C)c3n2)cc1Br	11%	0.3	4.0	11	0.2%	?	6
COc1cccc(S(=O)(=O)NCc2ccc(C(=O)N3CCN(c4ccccc4)CC3)cc2)c1	18%	-0.3	·	9	-0.2%	1.7%	5
COC(=O)c1ccc(/C=C/C(=O)OCC(=O)Nc2sccc2C(N)=O)cc1	·	1.6	·	·	11%	·	8
CCOc1ccc(NC(=O)CSC2=Nc3ccccc3C3=NC(CC(=O)NCc4cccs4)C(=O)N23)cc1 (stereo not drawn)	·	-0.4	·	·	0.6%	-15%	5
COc1ccc(OC)c(-c2nc(CN3CCN(C(=O)c4ccco4)CC3)c(C)o2)c1	1%	-1.1	·	?	0.1%	3.6%	-12
COc1ccc(NC(=O)C(=O)NCCN2CCN(C(=O)c3ccc(C(C)(C)C)cc3)CC2)cc1	17%	0.3	-4.7	-19	2.5%	6.9%	20
COc1ccc(NC(=O)CCCS(=O)(=O)c2nc(-c3ccccc3OC)cc(C(F)(F)F)n2)c(OC)c1	·	-0.3	·	·	-0.4%	-5.9%	-8
CCC(C)Sc1nc2ccccc2c(=O)[nH]1 (stereo not drawn)	1%	0.8	2.8	6	0.4%	25µM*	-16
Cc1csc(NC(=O)Nc2cccc(Cl)c2)n1	7%	-1.0	1.4	-7	4.0%	0.4%	15
O=C(c1cc(F)ccc1F)C1CCCN(C(=O)CCc2cnccn2)C1 (stereo not drawn)	-3%	1.5	1.1	-9	1.8%	·	13
COc1ccc(S(=O)(=O)N(CC(=O)NCc2cccnc2)c2ccc(F)cc2)cc1OC	12%	·	4.8	-19	·	·	·
COc1cccc(NC(=O)CN(C)C(=O)CNC(=O)c2ccc3ccccc3c2)c1	·	0.5	·	-12	4.4%	-4.7%	7
O=S(=O)(NCC1CCCO1)c1ccc(Br)cc1 (stereo not drawn)	3%	0.2	-0.3	0	2.7%	0.1%	-2
CCC1CCCCN1C(=O)Nc1cccc(NC(=O)N2CCCCC2CC)c1 (stereo not drawn)	-11%	1.0	3.7	-21	6.8%	-4.4%	-1
Cc1cccc(NC(=O)C2CCCN(S(=O)(=O)c3cccc4nonc34)C2)c1 (stereo not drawn)	20%	1.7&-0.7	1.7	-8	-0.5%&5.7%	-0.2%	22&6
COC(=O)c1ccc(C(C(=O)NCc2ccccc2)N(Cc2cccs2)C(=O)c2cnccn2)cc1 (stereo not drawn)	4%	2.4	1.1	-1	6.3%[38.3 µM]	3.6%	-4
COc1ccc(CNC(=O)c2ccc3c(c2)N(Cc2ccccc2)CCS3)cc1	·	0.4	·	·	-0.5%	4.3%	4
COc1ccc(C(=O)NCCCNC(=O)c2cccnc2)cc1OC	18%	-0.2	0.2	1	-0.5%	·	-13
CCCCNC(=O)C(=O)N/N=C/c1ccc(OCc2ccccc2)cc1	11%	0.7	-3.1	3	2.1%	3.4%	1
COc1ccc(NC(=O)c2cc3ccc(O)cc3o/c2=N\O)cc1	-6%	0.6	11	7	4.3%	·	29
O=C(O)c1nnn(-c2ccc([N+](=O)[O-])cc2)c1-c1ccccc1	9%	-0.7	-0.3	2	0.6%	-2.1%	-3
Cc1cccc(CCNC(=O)c2sc3nc4n(c(=O)c3c2C)CCCC4)c1	·	0.9	·	·	2.6%	-2.0%	15
CC1(C)CCN2CCC(C)(C)c3c(O)ccc1c32	20µM*	?	?	-12	?	-2.9%	-5
CCc1ccc(C2=CC(c3cccc(OC)c3OC)n3c(nc4ccccc43)N2)cc1 (stereo not drawn)	·	6.4	·	·	0.5%	0.2%	32
NC(=O)c1cc([N+](=O)[O-])ccc1NCC1CCCCC1	·	0.8	·	-6	6.5%	1.0%	25
Cc1ccccc1NC(=O)CCc1c(C)nn(-c2ccc(N3CCCCC3)nn2)c1C	8%	-1.1&-0.7	1.8	6	-1.4%&0.4%	-1.4%&0.8%	32&12
COc1ccccc1NC(=O)c1ccc(-c2nn(C)c(=O)c3ccccc23)cc1	-6%	1.9	-5.6	-26	-1.1%	·	1
COc1ccc(CN2CCN(C(=O)CCC(=O)Nc3nnc(C4CCCCC4)s3)CC2)cc1F	20%	0.3	·	-34	-0.5%	-2.0%	25
Cc1cnc(CN(C)C(=O)C2CCC(=O)N(CCc3ccccc3)C2)[nH]1 (stereo not drawn)	7%	-0.4	·	7	-0.4%	-2.8%	-4

Further records follow:
mol	Sfp PPTase inh	TRPML1 ag	Menin-MLL FL inh	TRPV1 PAM	PINK1 modulator	ClpP mod	TRPML1 blocker
O=C(NCCSc1ccccc1)c1ccccc1F	·	4.5	·	·	0.0%	1.8%	17
O=S(=O)(NCc1cccs1)c1ccc(Br)cc1	14%	2.2	0.1	0	3.0%	-0.2%	0
COc1cccc(CN(C)C(=O)CC[C@H]2O[C@@H](n3cnc4c(NC(=O)c5ccccc5)ncnc43)[C@H](O)[C@@H]2O)c1	·	-0.3	·	·	0.4%	-1.7%	·
Cc1ccc2nc(NCc3ccccc3Cl)c3nnnn3c2c1	·	0.2	·	·	0.6%	?	-3
COc1ccc(CCNC(=S)Nc2ccc(OC)cc2)cc1	13%	5.9	0.9	4	-1.8%	1.8%	18
CC(C)c1ccc(NC(=O)c2ccc(NS(C)(=O)=O)cc2)cc1	13%	1.1	-3.7	11	5.7%	·	5
N#CC(C#N)=C(N)CSc1cccc[n+]1[O-]	-8%	-0.2	-4.0	30	-0.6%	·	1
O=C1c2ccccc2-c2nccnc21	-3%	-0.7	5.0	-5	0.9%	1.2%	4
O=C(Cn1ccn(-c2cccc(Cl)c2)c(=O)c1=O)c1ccc(F)cc1	·	-0.8	·	·	-0.6%	-1.5%	-3
CN1CCN(c2ncnc3ccc(-c4cccc(C#N)c4)cc23)CC1	11%	·	-3.2	·	-0.6%	·	·
COc1cccc(-c2nc3nc(C)cc(C)n3c2Nc2ccc3c(c2)OCCO3)c1	·	-1.1	·	·	-0.2%	-0.9%	·

Among those listed so far, 2 have a cyano group:
mol	Sfp PPTase inh	TRPML1 ag	Menin-MLL FL inh	TRPV1 PAM	PINK1 modulator	ClpP mod	TRPML1 blocker
N#CC(C#N)=C(N)CSc1cccc[n+]1[O-]	-8%	-0.2	-4.0	30	-0.6%	·	1
CN1CCN(c2ncnc3ccc(-c4cccc(C#N)c4)cc23)CC1	11%	·	-3.2	·	-0.6%	·	·
